HNF4A DNA FP: change in binding of human HNF4 alpha to DNA; HNF4a-FITC DNA binding, fluorescence polarization, 1 h; activity change, % at 10 µM; 360,000 tested, 0.3% active; AID 1224865; in the data active = activity change above about 30%, passing the limit was not always enough;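 note: controls were the assay level and a saturating level of protein; the project sought stronger binding though the title names inhibitors; some compounds called inactive have numbers as strong as hits; positive values seem to mean higher polarization but the record does not say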
Target sequence (P41235 whole entry, looked up): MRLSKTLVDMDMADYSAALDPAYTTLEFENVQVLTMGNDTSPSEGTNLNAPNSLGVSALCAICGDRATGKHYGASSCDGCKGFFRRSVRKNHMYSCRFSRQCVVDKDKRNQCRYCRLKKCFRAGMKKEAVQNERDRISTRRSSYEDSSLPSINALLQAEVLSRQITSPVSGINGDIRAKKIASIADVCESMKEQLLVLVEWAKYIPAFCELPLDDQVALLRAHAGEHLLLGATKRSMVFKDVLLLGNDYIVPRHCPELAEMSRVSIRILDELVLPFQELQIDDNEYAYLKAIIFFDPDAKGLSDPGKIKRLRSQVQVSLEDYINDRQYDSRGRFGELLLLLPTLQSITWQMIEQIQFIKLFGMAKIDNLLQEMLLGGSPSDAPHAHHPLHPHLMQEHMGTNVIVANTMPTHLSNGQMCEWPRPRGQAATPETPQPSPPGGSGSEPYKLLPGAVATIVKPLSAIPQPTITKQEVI
Vif A3G: inhibitors of Vif binding to APOBEC3G peptide, primary screen, biochemical, TR-FRET, GST-Vif 1-94, biotin-A3G peptide, dose response retest (AID 1117319) | TR-FRET GST-Vif / biotin-A3G peptide binding; higher % means a stronger effect; test concentration not given here; strong numbers were not always called active | one-dose inhibition, %; IC50 in µM for titrated hits | 260,000 tested, 0.57% active;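 active = above the screen mean plus three standard deviations and confirmed in dose response; inconclusive = results disagree or hit not tested in dose response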;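 note: Vif residues 1-94 fused to GST binding biotinylated APOBEC3G peptide 110-148; 0% = full assay without inhibitor and 100% = GST in place of GST-Vif; retest series ran down from 100 µM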
ALR inh: inhibitors of human sulfhydryl oxidase ALR; 290,000 tested, 3.8% active; inhibition, % (no concentration beside the values); AID 485317; P55789; purified ALR, DTT oxidation, H2O2 HRP-luminol luminescence;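 active = mean and each replicate at 75% or more; inconclusive = only one of the two met; inactive = neither met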;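 note: stock transfer was 7.5 nL into about 7.5 µL; 0% = neutral wells and 100% = wells with inactivated enzyme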
Target sequence (P55789 whole entry, looked up): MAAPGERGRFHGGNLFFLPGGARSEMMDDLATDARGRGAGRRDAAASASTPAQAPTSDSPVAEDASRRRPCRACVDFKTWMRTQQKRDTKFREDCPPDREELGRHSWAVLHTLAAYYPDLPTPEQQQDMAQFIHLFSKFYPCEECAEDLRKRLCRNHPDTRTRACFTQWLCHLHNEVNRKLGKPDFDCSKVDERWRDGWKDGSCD
* = called active by the depositor.

`O=C1c2cccc(O)c2C(=O)c2c(O)cccc21` gave Vif A3G 23.8% and ALR inh -9.7.
Screening CCOC(=O)c1[nH]c2cc(OC)c(OC)cc2c1NC(=O)CN1CCN(c2ccc(OC)cc2)C(C)C1 (stereo unspecified) returned Vif A3G 23.0% and ALR inh 68.1.
`CCOc1ccc2cc(C#N)c(SCC(=O)NC(C)CC)nc2c1` (stereo unspecified) gave Vif A3G 20.4% and ALR inh 10.8.
CC(=O)NCC1=C(NC(C)=O)C2CC1C(C)(C)C2C (stereo unspecified) was read as Vif A3G 17.5% and ALR inh 1.2.
Screening Fc1ccccc1Cn1cnc(NC(=S)NCCc2ccccc2)n1 returned Vif A3G -2.5% and ALR inh 2.8.
For O=C(c1cccn2c(=O)c3cc4ccccc4cc3nc12)N1CCN(c2ccccc2)CC1 the results were Vif A3G -4.8% and ALR inh -10.5.
For CC1=C(C#N)C(=O)N(C2CCS(=O)(=O)C2)C(=O)/C1=C\c1ccco1 (stereo unspecified) the results were Vif A3G 0.62µM* and ALR inh 15.3.
Screening CCOC(=O)c1c(NC(=O)N/N=C/c2ccc(O)c(OC)c2)sc(C(C)=O)c1C returned Vif A3G inconclusive and ALR inh 48.2.
`COC(=O)/C=C1\OC(c2ccccc2)=CC1=O` gave Vif A3G 3.9% and ALR inh 15.9.
Screening C[C@H]1CC[C@H]2C(=O)N3[C@H](c4ccccc4Br)[C@@H](C)CC[C@H]3C(=O)N2[C@@H]1c1ccccc1Br returned Vif A3G -4.2% and ALR inh -27.7.
For O=C1CC(c2ccc(Br)cc2)NC(c2ccc(Br)cc2)C1c1ccccc1 (stereo unspecified) the results were Vif A3G -1.6% and ALR inh -4.4.
CCCCNC(=O)Oc1cc(CCl)on1 was read as Vif A3G 1.7% and ALR inh -3.7.
`CCCCCNc1nc(-c2ccccc2)cs1` gave Vif A3G inconclusive and ALR inh 22.4.
Screening Cc1ccc(C(=O)Nc2ccc(C(=O)N/N=C/c3ccncc3)cc2)cc1 returned Vif A3G 10.6% and ALR inh -3.2.
Screening CCN(c1ccccc1)S(=O)(=O)c1ccc(Cl)c(NC(=O)COC(=O)c2cc(O)c3ccccc3c2O)c1 returned Vif A3G inconclusive and ALR inh -36.6.

Some of these compounds in order of SMILES length, largest number first:
Screening C[C@H]1CC[C@H]2C(=O)N3[C@H](c4ccccc4Br)[C@@H](C)CC[C@H]3C(=O)N2[C@@H]1c1ccccc1Br returned Vif A3G -4.2% and ALR inh -27.7.
For O=C1CC(c2ccc(Br)cc2)NC(c2ccc(Br)cc2)C1c1ccccc1 (stereo unspecified) the results were Vif A3G -1.6% and ALR inh -4.4.
`CCOc1ccc2cc(C#N)c(SCC(=O)NC(C)CC)nc2c1` (stereo unspecified) gave Vif A3G 20.4% and ALR inh 10.8.
CC(=O)NCC1=C(NC(C)=O)C2CC1C(C)(C)C2C (stereo unspecified) was read as Vif A3G 17.5% and ALR inh 1.2.

Other entries
For O=C(Cc1nc2ccccc2s1)c1ccc(O)cc1O the results were Vif A3G 11.2% and ALR inh 10.6.
`O=C(/C=C/c1ccc2c(c1)OCO2)Nc1nc(-c2ccc(F)cc2F)cs1` gave Vif A3G inconclusive and ALR inh 2.3.
For Cc1ccc(S(=O)(=O)N/N=c2\oc3ccccc3cc2C(=O)Nc2cccc(C)c2)cc1 the results were Vif A3G 3.1% and ALR inh 2.5.
`C[C@H]1COc2c(C3(N)CC3)c(F)cc3c(=O)c(C(=O)O)cn1c23` gave Vif A3G -3.1% and ALR inh 1.0.
Screening COc1ccc(N/C(=C(/C(Cl)=C(Cl)Cl)[N+](=O)[O-])n2nnc3ccccc32)cc1 returned Vif A3G 6.5% and ALR inh -152.9.
C[C@]12CC[C@@H]3c4ccc(O)cc4[C@@H](O)C[C@H]3[C@@H]1CC[C@@H]2O was read as Vif A3G 11.1% and ALR inh 14.7.
For O=C(c1ccco1)[C@@H]1[C@@H]2C(=O)N(c3ccc(F)cc3)C(=O)[C@@H]2C2c3ccccc3C=CN21 (stereo partly specified) the results were Vif A3G 31.3% and ALR inh 4.4.
`CCOC(=O)C(=Cc1ccc(F)cc1)C(=O)OCC` gave Vif A3G -5.5% and ALR inh -2.0.
`CN(C)c1ccc(/C=c2/sc3n(c2=O)NC2(c4ccccc4)N(C)C(=O)N(C)C2(c2ccccc2)N=3)cc1` (stereo unspecified) gave Vif A3G 4.8% and ALR inh -4.6.
`CSCCNC(C)=O` gave Vif A3G -0.8% and ALR inh -10.3.
Screening CCOC(=O)CN(C)Cc1c[nH]c2ccccc12 returned Vif A3G inconclusive and ALR inh -28.6.
`Cc1cc(C(=O)O)ccc1-n1c(C)ccc1C` gave Vif A3G 5.16µM* and ALR inh 18.7.
Cc1ccc(N2C(=O)c3ccccc3C2O)nc1 (stereo unspecified) was read as Vif A3G 2.8% and ALR inh -2.9.
For COc1ccccc1C(C)NS(=O)(=O)c1cccs1 (stereo unspecified) the results were Vif A3G inconclusive and ALR inh 0.9.
Screening CN(c1ccccc1)c1ccc(/C=c2\s/c(=C(/C#N)C(=O)C(C)(C)C)n(Cc3ccco3)c2=O)cc1 returned Vif A3G 7.5% and ALR inh -25.2.
`Cn1c(C(C)(O)C(O)c2ccccc2)nc2ccccc21` (stereo unspecified) gave Vif A3G 0.3% and ALR inh -51.5.
C=CCOc1ccc(/C=N\NC(N)=S)cc1 was read as HNF4A DNA FP -3.7 and ALR inh -4.4.
N#C/C(=C\C=C\c1ccccc1)c1nc(-c2ccc3c(c2)OCO3)cs1 was read as HNF4A DNA FP -18.8 and ALR inh -2.6.
C#CCOCCOCCOCCNc1nc(N2CCN(C(=O)CCCCCCCCCCNC(=O)[C@@H](CCC(=O)O)n3cc(CCCCCN)nn3)CC2)nc(N2CCN(C(=O)CCCCCCCCCCNC(=O)[C@H]([C@@H](C)CC)n3cc(CCCCCN)nn3)CC2)n1 was read as HNF4A DNA FP 0.4 and ALR inh 4.4.
`O=C(N/N=C/c1cccnc1)c1cc(-c2cccs2)nc2ccccc12` gave HNF4A DNA FP -3.5 and ALR inh 56.0.
COc1ccc2c(c1)C(=O)N1[C@H]3c4cc(Cl)ccc4OC[C@@H]3[C@H](c3ccccc3)[C@]1(C)C(=O)N2 was read as HNF4A DNA FP -7.7 and ALR inh 0.7.
Screening Nc1c(C(=O)N/N=C/c2cccnc2)cnn1-c1ccccc1 returned HNF4A DNA FP -1.7 and ALR inh -3.5.
Screening COc1cc(OC)c(-n2cc(-c3ccc(Cl)cc3)[nH]c2=O)cc1Cl returned HNF4A DNA FP 0.3 and ALR inh -15.4.
Screening Cc1ccc(NC(=O)COc2ccc(/C=N\NC(=O)c3cccnc3)cc2)cc1C returned HNF4A DNA FP 15.9 and ALR inh -13.1.
Cn1c(=O)c2c(ncn2CC(=O)N/N=C/c2ccco2)n(C)c1=O was read as HNF4A DNA FP 0.1 and ALR inh -0.2.
For C#CCOCCOCCOCCNc1nc(N2CCN(C(=O)CCCCCCCCCCNC(=O)[C@H](CCCCN)n3cc(C[C@@H](C)CC)nn3)CC2)nc(N2CCN(C(=O)CCCCCCCCCCNC(=O)[C@H](CCCCN)n3cc(C[C@@H](C)CC)nn3)CC2)n1 the results were HNF4A DNA FP 187.2 and ALR inh -5.0.
`Cn1cc(/C=N/NC(=O)c2cccc([N+](=O)[O-])c2)c2ccccc21` gave HNF4A DNA FP -2.6 and ALR inh -5.2.
CCOc1cccc(-c2c(C(=O)N/N=C/c3ccco3)nnn2-c2nonc2N)c1 was read as HNF4A DNA FP -0.3 and ALR inh -0.7.
`O=C1C(Cc2ccccc2)Nc2ncnc(N3CCCCC3)c2N1Cc1ccc(Cl)cc1` (stereo unspecified) gave HNF4A DNA FP 0.9 and ALR inh 2.8.
COc1ccc(/C=c2\s/c(=C/C(=O)c3ccc(C)cc3)[nH]c2=O)cc1OC was read as HNF4A DNA FP 66.7* and ALR inh 3.2.

Molecules listed so far that have bromine:
Screening C[C@H]1CC[C@H]2C(=O)N3[C@H](c4ccccc4Br)[C@@H](C)CC[C@H]3C(=O)N2[C@@H]1c1ccccc1Br returned Vif A3G -4.2% and ALR inh -27.7.
For O=C1CC(c2ccc(Br)cc2)NC(c2ccc(Br)cc2)C1c1ccccc1 (stereo unspecified) the results were Vif A3G -1.6% and ALR inh -4.4.

Next part.
For Cc1ccc(Cn2c(=N)c(C(=O)NC3CCCC3)cc3c(=O)n4ccccc4nc32)cc1 the results were HNF4A DNA FP 11.0 and ALR inh -2.5.
For CCN(CC)c1ccc2nc3ccccc3[n+](CC)c2c1 the results were HNF4A DNA FP -1.9 and ALR inh -8.5.
Screening COc1ccc(/C=N\N=C2/SC(CC(=O)O)C(=O)N2c2ccc(O)cc2)cc1OC (stereo unspecified) returned HNF4A DNA FP -0.5 and ALR inh -7.5.
`O=C(/C=C\c1ccc2c(c1)OCO2)NC1(C(=O)Nc2ccc3c(c2)OCO3)CCCCC1` gave HNF4A DNA FP -0.8 and ALR inh -6.4.
Screening CC(C)=C(NC(=O)c1ccccc1)C(=O)N/N=C/c1ccc(O)cc1 returned HNF4A DNA FP 11.1 and ALR inh 98.8*.
`Cc1cc(Cl)ccc1OCC(=O)N1CCCN(C(=O)COc2ccc(Cl)cc2C)CC1` gave HNF4A DNA FP -0.9 and ALR inh -11.5.
Screening O=C(CSc1nnc(SCc2ccc(Cl)cc2)s1)N/N=C/c1c(Cl)cccc1Cl returned HNF4A DNA FP -0.3 and ALR inh -6.7.
For COc1ccccc1Nc1nn2c(=O)c3ccc(C(=O)NCc4cccnc4)cc3nc2s1 the results were HNF4A DNA FP 90.5* and ALR inh -1.4.
`CCOC(=O)CN1C(=O)N[C@@H](c2ccccc2)C(C(C)=O)=C1C` gave HNF4A DNA FP -0.6 and ALR inh -1.4.
CCC(C)Sc1ccc(-c2nc3ccc(C)cn3c2NCc2ccccc2)cc1OC (stereo unspecified) was read as HNF4A DNA FP 1.3 and ALR inh 12.8.
Screening COC(=O)N/N=C/c1cc(C)n(-c2cccc3ccccc23)c1C returned HNF4A DNA FP -2.7 and ALR inh -9.1.
For C[N+](C)(C)c1ccc(/C=N/Nc2nc(Cl)c(C#N)c(Cl)c2Cl)cc1 the results were HNF4A DNA FP 7.4 and ALR inh -0.7.
Screening O=C(C[C@H]1C/C=C\C[C@H](NC(=O)OCC2c3ccccc3-c3ccccc32)C(=O)OC[C@@H]2CCCN2C1=O)N[C@H](CO)Cc1ccccc1 returned HNF4A DNA FP 1.6 and ALR inh -31.8.
Screening O=C(Cn1nnc2ccccc21)N/N=C\c1cccs1 returned HNF4A DNA FP 0.6 and ALR inh -31.1.
Screening O=C1[C@H]2[C@@H](c3ccc(Cl)cc3)N3C(=O)N(c4cccc(F)c4)C(=O)[C@@]3(Cc3ccc(Cl)cc3)[C@H]2C(=O)N1C1CCCCC1 returned HNF4A DNA FP -1.6 and ALR inh -0.8.
`CCO[C@H]1OC(C(=O)NCc2nc3ccccc3[nH]2)=C[C@@H](c2ccc(Br)cc2)[C@@H]1CCCO` gave HNF4A DNA FP -4.2 and ALR inh 2.5.
For Cn1c(SCC(=O)N/N=C/c2ccc([N+](=O)[O-])s2)nnc1-c1ccc(Cl)cc1 the results were HNF4A DNA FP 2.3 and ALR inh -12.2.

Molecules shown so far that have a thiophene ring, fused or not (5):
Screening CCOC(=O)c1c(NC(=O)N/N=C/c2ccc(O)c(OC)c2)sc(C(C)=O)c1C returned Vif A3G inconclusive and ALR inh 48.2.
For COc1ccccc1C(C)NS(=O)(=O)c1cccs1 (stereo unspecified) the results were Vif A3G inconclusive and ALR inh 0.9.
`O=C(N/N=C/c1cccnc1)c1cc(-c2cccs2)nc2ccccc12` gave HNF4A DNA FP -3.5 and ALR inh 56.0.
Screening O=C(Cn1nnc2ccccc21)N/N=C\c1cccs1 returned HNF4A DNA FP 0.6 and ALR inh -31.1.
For Cn1c(SCC(=O)N/N=C/c2ccc([N+](=O)[O-])s2)nnc1-c1ccc(Cl)cc1 the results were HNF4A DNA FP 2.3 and ALR inh -12.2.

An excerpt; rates above refer to the full screens.
